From PubChem
fixLJ activator: B. multivorans fixK reporter activation; z-score (test concentration not listed); 29,000 compounds, 0.3% hits; AID 1918990; B. multivorans fixK-promoter GFP reporter, 18 h; stronger effect = higher value;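 active = replicate mean overnight rise in green fluorescent reporter signal, 3 or more SD over negative controls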;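 also: score is relative to vehicle wells of the plate; 300 nL library stock went into each well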
Starred values were filed as active, the others as inactive; & = joins results of further samples. A portion of the library. The share of hits here may be higher or lower than overall.

SMILES	fixLJ activator
COCCc1nc(CNC(=O)c2[nH]c3c(C)ccc(C)c3c2C)no1	-1.6
Cc1cccc(Cn2c(=O)n(Cc3ccc(C(=O)NC4CCN(Cc5ccccc5)CC4)cc3)c(=O)c3ccccc32)c1	-1.8
CCOc1ccc(NC(=O)c2cnn(-c3ccc(C)c(C)c3)c2C2CCN(C(=O)OC(C)(C)C)CC2)cc1	0.08
Cc1cc(C2CCCN2C(=O)CCC(=O)Nc2nncs2)no1 (stereo unspecified)	0.34
Cc1cc(C)n2nc(CNC(=O)c3cccc(N(C)C)c3)nc2n1	1.2
COc1ccc(/C=C/c2nc(C#N)c(NCCc3ccccc3)o2)cc1OC	2
Cc1cc(C)n(Cc2ccc(C(=O)N(C)C(C)c3ccon3)cc2)n1 (stereo unspecified)	-0.17
Cc1c(NC(=O)C(C)(C)Oc2ccc(Cl)cc2)cccc1-c1nc2ccccc2o1	-1.5
CCc1ccc(-c2cn3c(C(=O)NCC(C)C(=O)NC)csc3n2)cc1 (stereo unspecified)	-1.8
Cc1ccc2c(=O)cc(C(=O)Nc3c(C(=O)c4ccc(F)cc4)oc4ccccc34)oc2c1C	-0.84
COc1ccccc1C(=O)N(Cc1nc(-c2cccc(C)c2)no1)C(C)C	0.2
Cc1cccc2[nH]c(CN(C)C(=O)NCc3cccs3)nc12	-0.44
CCOC(=O)c1ccc(NC(=O)C(C)Sc2nc(=O)cc(N)n2CCc2ccccc2)cc1 (stereo unspecified)	-2.5
CNC(=O)c1ccc(Nc2nnc(-c3ccc(C)c(S(=O)(=O)N4CCOCC4)c3)c3ccccc23)cc1	-0.52
Cc1noc(-c2ccnc(N3CCN(c4ncnc(C)c4C)CC3)c2)n1	-2.6
O=C(Nc1ccc2oc(-c3cccnc3)nc2c1)c1ccccc1F	-1.4
COc1ccc(CCN2C(=O)c3[nH]nc(-c4ccccc4O)c3C2c2ccc(OC)c(OC)c2)cc1 (stereo unspecified)	-0.75
CCc1c(C)nc2nncn2c1Nc1ccc(Cl)cc1	-0.28
Cc1cc(C)n2nc(C)c(C(=O)NCc3nc(-c4cnccn4)n[nH]3)c2n1	-0.45
O=C(CSc1c2c(nc3cc(Cl)ccc13)CCCC2)N1CCN(c2ccccc2F)CC1	-1.5
CCn1cnnc1CCNC(=O)c1ccc(-c2ccc(C(C)=O)cn2)cc1	-1.8
Cn1c(=O)c2sccc2n2c(CCC(=O)NCc3ccc(F)cc3)nnc12	1.2
CCn1nc(CC(C)C)cc1C(=O)NCC(O)c1cccs1 (stereo unspecified)	-1.4
CCOC(=O)C1=C(C)NC(=O)NC1c1cn(-c2ccccc2)nc1-c1ccc(OCC)cc1 (stereo unspecified)	-0.83
Cc1ccc(CCNc2ncnc3onc(-c4ccc(Cl)cc4)c23)cc1	-1
Later entries:
SMILES	fixLJ activator
CCNC(=O)c1ccnc(N2CCCC(COc3ccccc3C)C2)c1 (stereo unspecified)	1.3
COc1ccc(Nc2c(-c3ccsc3)nc3nc(C)cc(C)n23)cc1	-1.2
CCn1cc(C(=O)N2CCN(c3cc(C)ccc3C)CC2)c(=O)c2cc(S(=O)(=O)N3CCOCC3)ccc21	0.23
Cc1cccc(NC(=O)Cn2cc(S(=O)(=O)c3ccc(F)cc3)c(=O)c3cc4c(cc32)OCO4)c1	-0.65
CCCCOc1ccc(C2c3c(oc4ccc(C)cc4c3=O)C(=O)N2CCCN(C)C)cc1OCC (stereo unspecified)	-0.11
O=C1[C@H](CCC(O)c2ccc(F)cc2)[C@@H](c2ccc(O)cc2)N1c1ccc(F)cc1 (stereo partly specified)	-0.82
COc1nc(Oc2ccc(=O)n(-c3ccccc3)n2)nc(N(C)C)n1	-1.7
COc1cc2c(cc1OC)C1(CCN(C(=O)C3CCCN3)CC1)OCC2 (stereo unspecified)	0.64
CCN(CC)S(=O)(=O)c1ccc2c(c1)N(CC(=O)NCC(C)c1ccccc1)C(=O)CO2 (stereo unspecified)	-0.1
CC(=O)c1ccc(NC(=O)c2cn(C)c(=O)c3ccccc23)cc1	-2
COc1ccc(-n2nc(C(=O)Nc3cccc(Cl)c3)c3c4ccccc4n(C)c3c2=O)cc1Cl	0.5
CCC(C)NC(=O)Cn1c(=O)n(-c2ccc(C)c(C)c2)c(=O)c2c3c(sc21)CCCCC3 (stereo unspecified)	-0.4
O=S(=O)(c1ccccc1)c1nnn2c1nc(NCc1ccccc1)c1cc(Cl)ccc12	0.5
CCOc1cccc(C(=O)Nc2ccc3oc(-c4ccc(C(C)(C)C)cc4)nc3c2)c1	0.25
CCc1ccccc1Nc1cc(C(=O)NCCc2ccccc2)c2ccccc2n1	3
O=C(Nc1sc2c(c1C(=O)NCc1ccccc1)CCCC2)c1cc(=O)c2cc(Cl)ccc2o1	-0.89
COc1ccc(CN(Cc2ccco2)C(=O)COc2ccccc2Cl)cc1	0.83
CCCn1nccc1S(=O)(=O)NC(c1ccc(OC)c(F)c1)C1CC(O)C1 (stereo unspecified)	-0.1
CCN1CCOC(=O)C1CC(=O)Nc1ccc(Br)cc1 (stereo unspecified)	1.5
Cc1ccc(NC(=O)c2c(NC(=O)c3ccccc3)sc3c2CCC3)cc1	1.8
COc1ccccc1CNC(=O)CN1C(=O)COc2ccc(S(=O)(=O)N3CCC(C)CC3)cc21	-0.47
CC1CCN(S(=O)(=O)c2ccc3c(c2)N(CC(=O)NCc2ccccc2)C(=O)CO3)CC1	0.28
Cc1ccc2c(c1)C(=O)OC(C(=O)Nc1ncc(Cc3ccc(C(C)C)cc3)s1)C2 (stereo unspecified)	-1.3
COc1ccccc1CCNC(=O)Cc1c(C)c2cc(Cl)c(O)cc2oc1=O	-1.9
COc1ccc(NC(=O)CSc2nc3ccccc3nc2N2CCCCC2)cc1	-1.1
(cont.)
SMILES	fixLJ activator
CCCN(C(=O)Cn1nc(Cc2cccnc2)c2ccccc2c1=O)c1ccc(C(C)C)cc1	-1.6
CCCN(CCC)CCNC(=O)c1cc2c(-c3ccc(Cl)cc3)nn(C)c2s1	-1.5
CNc1c(NC(=O)c2ccc(OC)c(OC)c2)c(=O)oc2ccccc12	-0.97
CCC1CCCCN1C(=O)CSc1nc(-c2ccc(OC)c(OC)c2)cc(C(F)(F)F)n1 (stereo unspecified)	-0.59
CCOc1ccc(C2c3c(-c4ccccc4O)n[nH]c3C(=O)N2Cc2cccnc2)cc1OC (stereo unspecified)	-1.7
COCCN1CC(NC(=O)Cc2cccc(C(F)(F)F)c2)CC1=O (stereo unspecified)	1.9
CCCN(C(=O)c1cc2c(Cl)nc3ccccc3c2s1)c1cccc(C)c1	1.4
Cc1ccc(-c2nnc(Nc3ccccc3O)c3ccccc23)cc1	0.3
Cc1ccc2nc(-c3ccccn3)c(Nc3ccc(F)cc3)n2c1	-0.74
CC(=O)c1cc2c(cc1NC(=O)CN1CCCC1)OCCO2	-0.18
Cc1cccc(NC(=O)C2CCCN2S(=O)(=O)c2cccc3nsnc23)c1C (stereo unspecified)	0.05
CC1CCN(CCCNC(=O)c2cn(C)c3ccc(S(=O)(=O)N(C)C4CCCCC4)cc3c2=O)CC1	0.88
Cc1cnccc1NCCNC(=O)NC12CC3CC(CC(C3)C1)C2	-3
Cc1cccnc1CC(C)N(C)C(=O)NCc1ccc(C(=O)N(C)C)cc1 (stereo unspecified)	-1.6
COc1ccc(C2=NC(c3ccncc3)=Nc3ccc(OC)cc3N2)cc1	-0.38
CCC(CC)C(=O)N1CCc2ccc(S(=O)(=O)Nc3nnc(C)s3)cc2C1	-3.1
O=c1c2ccccc2n(Cc2ccccc2F)c(=O)n1-c1cccc(F)c1	-0.78
Cc1ccc(C#N)c(N2CCCC(c3n[nH]c(=O)n3-c3ccccc3)C2)n1 (stereo unspecified)	-1.3
COc1cc2c(cc1OC)C1(CCN(C(=O)c3ccncc3)CC1)OCC2	-1.6
CCCCCC(=O)N1c2ccccc2C(C)(c2ccccc2)CC1(C)C (stereo unspecified)	1.9
CCc1c(C)nn(CC(=O)NC2COCC2Cc2ccncc2)c1C (stereo unspecified)	-0.74
O=C(c1ccc[nH]1)N1CC2c3ccccc3OC[C@]2(C(=O)O)C1 (stereo partly specified)	-0.46
COc1ccc(CNC(=O)Cc2c(C)c3c(cc(C)c4c(C)coc43)oc2=O)cc1OC	-1.3
O=C(CN1C(=O)COc2ccc(S(=O)(=O)N3CCCCCC3)cc21)N1CCN(c2cccc(C(F)(F)F)c2)CC1	-0.53
Cc1ccc(S(=O)(=O)c2nc(-c3ccco3)oc2SCc2ccccc2Cl)cc1	0.63

Quoted at random: three compounds from above
SMILES	fixLJ activator
COc1ccc(-n2nc(C(=O)Nc3cccc(Cl)c3)c3c4ccccc4n(C)c3c2=O)cc1Cl	0.5
O=C(CSc1c2c(nc3cc(Cl)ccc13)CCCC2)N1CCN(c2ccccc2F)CC1	-1.5
CCc1ccccc1Nc1cc(C(=O)NCCc2ccccc2)c2ccccc2n1	3

Following part.
SMILES	fixLJ activator
CCCCN1C(C(=O)c2ccccc2)=C(OC(=O)CC)c2ccccc2S1(=O)=O	-3
O=C(NC1(C(F)(F)F)NC(=O)N(CCc2ccccc2)C1=O)c1ccc(Cl)cc1 (stereo unspecified)	-2.2
COc1cccc(C(=O)N2CCc3cc(OC)c(OC)cc3C2COc2ccc3c(C)cc(=O)oc3c2)c1 (stereo unspecified)	0.36
CCCOc1ccc(N2CC(C(=O)Nc3cccc(Cl)c3Cl)CC2=O)cc1 (stereo unspecified)	0.13
CN(C)S(=O)(=O)CCNC(=O)Nc1ccc(OCc2cccs2)cc1	0.55
Cc1cccc(NC(=O)C(Cc2ccccc2)n2cccc2)c1C (stereo unspecified)	-0.97
COc1ccccc1Oc1c(NS(=O)(=O)c2ccc(C(C)(C)C)cc2)nc(-c2ncccn2)nc1OCCO	-1.3
COc1ccc(-n2nc(C(=O)Nc3cc(C)c(Cl)cc3OC)c3c4ccccc4n(C)c3c2=O)cc1	-0.96
COc1ccc(Cl)cc1NC(=O)Cn1nc(C(F)(F)F)c2c1CCCC2	-1.8
Cc1oc2c(c1C(=O)NCc1nc(-c3ccccn3)no1)C(=O)CCC2	-2
COc1ccc(NC(=O)c2ccco2)cc1NC(=O)COc1ccccc1Cl	1.6
COc1ccc(-c2csc3nc(-c4ccccc4)oc(=O)c23)cc1OC	-1.3
CC=CCN1CCCC(c2nnc(CN3CCC(O)CC3)n2C)C1 (stereo unspecified)	-1.1
NS(=O)(=O)c1cc2c(cc1Cl)NC(C1CC3C=CC1C3)NS2(=O)=O (stereo unspecified)	-1
O=C(Nc1nc2n(n1)C(c1ccccc1)C=C(c1ccccc1)N2)c1ccccc1 (stereo unspecified)	-0.6
CCc1ccc(S(=O)(=O)c2nnn3c2nc(Nc2cc(OC)cc(OC)c2)c2cc(Cl)ccc23)cc1	-0.53
O=C(c1ccco1)n1nc(-c2ccc(Cl)cc2)nc1NCc1ccc(F)cc1	-1.9
C=CCN1CC2(CCC1=O)CCN(C(=O)c1ccccc1C#N)CC2	-0.75
CCc1ccc(NC(=O)c2cc3sc(Cl)cc3n2C)cc1	0.29
COc1ccc(CCNC(=O)CCn2c(=O)c3ccccc3n(CC(=O)Nc3cc(Cl)ccc3C)c2=O)cc1OC	-1.5
Cc1ccc(S(=O)(=O)c2nc(-c3ccccc3F)oc2N2CCCCC2)cc1	0.85
COc1cccc(NC(=O)CC2C(=O)OCCN2Cc2ccccc2)c1 (stereo unspecified)	-0.81
CCc1ccc(NC(=O)Cn2cnc3sc(C)c(S(=O)(=O)N4CCN(c5ccccc5OC)CC4)c3c2=O)cc1	1.7
CCc1ccc(OCC(=O)Nc2ccc(S(=O)(=O)Nc3onc(C)c3C)cc2)cc1	-0.77
O=C1C(Nc2ccccc2)=CC(c2ccc(Br)cc2)N1c1ccccc1 (stereo unspecified)	-1.1

Copied from the entries so far, 6 compounds:
SMILES	fixLJ activator
COc1ccc(NC(=O)c2ccco2)cc1NC(=O)COc1ccccc1Cl	1.6
COc1ccc(-c2csc3nc(-c4ccccc4)oc(=O)c23)cc1OC	-1.3
CC=CCN1CCCC(c2nnc(CN3CCC(O)CC3)n2C)C1 (stereo unspecified)	-1.1
NS(=O)(=O)c1cc2c(cc1Cl)NC(C1CC3C=CC1C3)NS2(=O)=O (stereo unspecified)	-1
O=C(Nc1nc2n(n1)C(c1ccccc1)C=C(c1ccccc1)N2)c1ccccc1 (stereo unspecified)	-0.6
CCc1ccc(S(=O)(=O)c2nnn3c2nc(Nc2cc(OC)cc(OC)c2)c2cc(Cl)ccc23)cc1	-0.53

Additional compounds follow.
SMILES	fixLJ activator
CCCC12CN3CC(C)(CN(C1)C3c1ccccc1Cl)C2=O (stereo unspecified)	-0.67
Cc1ccc(NC(=O)CN2C(=O)C(c3ccc(C(C)(C)C)cc3)=NC2(C)C)cc1	-3.8
CCCNCC(O)COc1ccccc1C(=O)CCc1ccccc1 (stereo unspecified)	-0.37&0.5
COc1cc2nc(SCc3cccc(Cl)c3)n3nc(CCn4nc(C)cc4C)nc3c2cc1OC	0.48
CN1CCN(CCCN2c3ccccc3Sc3ccc(Cl)cc32)CC1	-2.5
COc1ccc(CN(C)C(=O)NCc2nc(C3CC3)no2)c2cccnc12	0.33
CCOc1ccc(-c2nc3c(c(SCC(=O)Nc4ccccc4C)n2)Cc2ccccc2O3)cc1	-0.68
O=C(COc1ccc(Cl)cc1)Nc1ccc(-c2nc3ccccc3s2)c(O)c1	0.66
COc1ccc(C2C=C(c3ccc(Cl)c(Cl)c3)Nc3ncnn32)cc1 (stereo unspecified)	-1.9
CN(Cc1ccccc1)C(=O)C1CCN(S(=O)(=O)c2ccc3c(c2)oc(=O)n3C)CC1	-0.66

A second format for part of the listing above:
Structure | fixLJ activator
CCOc1ccc(-c2nc3c(c(SCC(=O)Nc4ccccc4C)n2)Cc2ccccc2O3)cc1 | -0.68
O=C(COc1ccc(Cl)cc1)Nc1ccc(-c2nc3ccccc3s2)c(O)c1 | 0.66
COc1ccc(C2C=C(c3ccc(Cl)c(Cl)c3)Nc3ncnn32)cc1 (stereo unspecified) | -1.9
CN(Cc1ccccc1)C(=O)C1CCN(S(=O)(=O)c2ccc3c(c2)oc(=O)n3C)CC1 | -0.66
